Bioassay records (PubChem)
ClpP mod: qHTS Assay for Activators of ClpP | actives 1.9% (n = 340,000) | Potency, µM (doses to about 57.5 µM), for the others: at the top dose activity change, negative = active | ATP-dependent Clp protease proteolytic subunit (Bacillus subtilis (strain 168)), P80244 | purified B. subtilis ClpP, FRET peptide cleavage, 20 min; active = well fitted falling curve with a large enough effect; inconclusive = small, poorly fitted or top-dose-only effect; inactive = no such curve, though single readings can be large or run the other way; also: the source files actives as falling curves though it sought activators and does not explain the sign; nearly all actives have a fitted effect of over 65% in size; many hits overshoot -100%
Target sequence (P80244 whole entry, looked up): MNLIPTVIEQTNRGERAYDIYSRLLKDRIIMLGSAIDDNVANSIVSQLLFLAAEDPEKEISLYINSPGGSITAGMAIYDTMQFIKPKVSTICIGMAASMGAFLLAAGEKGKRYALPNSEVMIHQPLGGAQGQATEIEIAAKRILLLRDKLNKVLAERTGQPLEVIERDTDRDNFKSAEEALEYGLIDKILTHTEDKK
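Purified B. subtilis ClpP, 10 microg/mL final in Tris/HCl pH8 with KCl, BSA, glycerol and Tween-20, cleaved an Abz/nitrotyrosine-quenched decapeptide. Fluorescence (ex 320, em 430) was read at 0 and 20 min at room temperature. Delta was normalized to 5.8 microM ADEP and DMSO/no-enzyme controls.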
Numbers without * were called inactive; ? = inconclusive. Potency is read from the fitted curve at half-maximal effect. Not all compounds are listed (hit frequency here may not be typical).

SMILES	ClpP mod
CC1=C(c2ccc(C(C)C)cc2)S(=O)(=O)N=C1N1CCC(C(=O)NCc2ccc(C)o2)CC1	-0.2%
CCC(=O)NC1CC(=O)N(c2ccc3c(c2)OCCO3)C1 (centres undefined)	-1.1%
Cc1c(C(=O)N(Cc2ccc(N(C)C)cc2)Cc2ccco2)oc2cc(Br)ccc12	-0.1%
[N-]=[N+]=NC(c1ccccc1)C(NC(=O)c1cc(C(F)(F)F)cc(C(F)(F)F)c1)c1ccccc1 (centres undefined)	-3.4%
O=C(Cc1ccccc1)Nc1sc2c(c1C(=O)Nc1cccc(Cl)c1)CCCCC2	-4.6%
O=C(Cn1c(=O)c2cc(Cl)ccc2n2nncc12)Nc1ccccc1	-5.0%
CCOc1ccc(CNc2cc(C)nc3nc(-c4cccc(C)c4)nn23)cc1OC	-2.3%
CCCCNC(=O)CCCN1C(=O)c2ccccc2Sc2ncccc21	0.1%
CC(C)(C)OC(=O)N1CCC(c2c(C(=O)NC3CCCCC3)cnn2-c2cccc(Cl)c2)CC1	-2.0%
Cc1ccc(NC(=O)Cc2csc(C)n2)c(C)c1	-1.0%
CC(C)(C)C(=O)Nc1ccc2nc(SCc3ccccc3)sc2c1	0.2%
Cc1ccccc1Nc1nn2c(=O)c3ccc(C(=O)NCc4cccs4)cc3nc2s1	3.9%
COC(=O)c1c(NC(=O)c2cc3ccccc3c(=O)o2)sc2c1CCCC2	0.1%
CCc1ccc(N2CCn3c2nc2c3c(=O)n(CCc3ccccc3)c(=O)n2C)cc1	-0.6%
CCOc1ccc(CNS(=O)(=O)c2c(C(=O)N3CCCCCC3)c(C)n(C)c2C)cc1OC	-1.3%
COc1ccc(NC(=O)c2sc3nc(-c4cc5ccc(OC)cc5oc4=O)[nH]c(=O)c3c2C)cc1	?
COc1ccc2c(C)c(CC(=O)NCc3ccccc3Cl)c(=O)oc2c1OC	?
Cc1cc(NC(=O)c2ccc(NC(=O)CCS(=O)(=O)c3cccs3)cc2)ccc1Br	26%
CCc1nn2c(=O)cc(COC(=O)Cc3ccccc3)nc2s1	-7.4%
Cc1cccn2c(=O)cc(COc3ccc(NC(=O)C(C)C)cc3)nc12	-8.8%
COc1ccc(-c2cc(C(F)(F)F)n3nc(C(=O)Nc4cccc(Cl)c4Cl)cc3n2)cc1OC	-3.1%
CCN(CC)S(=O)(=O)c1ccc2c(c1)N(CC(=O)NCCc1ccc(OC)c(OC)c1)C(=O)CO2	5.0%
CCc1ccc2oc(C(=O)NCc3ccccc3)cc(=O)c2c1	-0.8%
O=C(CCC(=O)N1CC2CCCN2c2ccccc21)NCc1cccc(Cl)c1 (centres undefined)	-3.1%
COc1ccc(CCNC(=O)c2cccc(-n3c(C)nc4cccnc43)c2)cc1OC	2.3%
COc1ccc(N2CCN(C(=O)Oc3ccc([N+](=O)[O-])cc3)CC2)cc1	-0.5%
COCCNC(=O)c1ccc(-c2nc(CS(=O)(=O)c3ccccc3)c(C)o2)cc1	3.8%
COc1ccccc1-c1nn(CCC(=O)Nc2cccc(C(C)=O)c2)c2nc(C)cc(C)c12	-20%
COc1ccc(NC(=O)C(NC(=O)/C=C\c2ccc3c(c2)OCO3)c2ccc(C)cc2)cc1 (centres undefined)	4.4%
COc1ccc(N2CCN(C(=O)Cc3noc4ccc(C)cc34)CC2)cc1	0.6%
COc1ccc(C(=O)Nc2nc(-c3nnn(-c4cc(OC)ccc4OC)c3C)ns2)cc1	-20%
COc1ccc(C2(Nc3cccc(F)c3)C(=O)c3ccccc3C2=O)cc1	-0.1%
COc1ccc(Cn2cc(CN3CC(N4CCN(C)CC4)CS3(=O)=O)nn2)cc1 (centres undefined)	-1.2%
CSCCC(NC(=O)C1CCCCC1)C(=O)Nc1ccc(F)c(Cl)c1 (centres undefined)	-4.4%
COc1cccc(-c2cc(C(=O)NCCc3ccc(OC)c(OC)c3)no2)c1	-5.0%
N#C/C(=C\c1ccc(-c2cccc(Cl)c2)o1)C(=O)Nc1cccc(C(F)(F)F)c1	-3.3%
COc1cccc(N2CC(NC(=O)C3CCCC3)CC2=O)c1 (centres undefined)	0.3%
COc1ccc(OC)c(NC(=O)c2c(NCc3cccs3)sc3c2CCCCC3)c1	-6.6%
COc1ccc(OC)c(NC(=O)Cn2c(=O)cc(C)c3c(C)nn(-c4cccc(Cl)c4C)c32)c1	-2.5%
CCC[n+]1c(/C=C/c2c(OC)cc(OC)cc2OC)ccc2ccccc21	1.1%
Cc1c(C)c2cc3c(c(C)c2oc1=O)OCN(CCc1ccc(F)cc1)C3	4.4%
Cc1cccc(-c2nnc(SCC(=O)N3CCCCC3)o2)c1	0.8%
Cc1cccc(OCC(=O)Nc2ccc(O)c(-c3nc4ccccc4o3)c2)c1	-1.5%
COc1ccc(Nc2ncnc3onc(-c4ccc(Cl)cc4)c23)cc1Cl	-22%
C=C1C=C(C(F)F)n2ncc(C(=O)Nc3cccc(CC)c3)c2N1	1.7%
Nc1[nH]c(=S)[nH]c(=O)c1N=O	-0.6%
CCCCN(Cc1ccccc1)S(=O)(=O)c1cc(Br)cc2c1N(C(=O)C1CC1)CC2	?
Cc1c(Cl)cccc1NC(=O)c1noc2c1CCCC2	1.3%
COc1ccccc1Cc1c(C2CCCCC2)nc2c3ccccc3ccn12	?
COc1ccc(CNC(=O)c2cc3c(=O)[nH]c4ccccc4c3n2C)c(OC)c1	-14%
NS(=O)(=O)c1ccc2nc(NC(=O)COc3ccccc3)sc2c1	-1.5%
Cc1ccc(S(=O)(=O)N(CC(O)Cn2c3ccccc3c3ccccc32)c2cccc(C(N)=O)c2)cc1 (centres undefined)	?
O=C(Nc1c(C(=O)Nc2ccccc2F)oc2ccccc12)c1cc2ccccc2o1	3.4%
Cc1ccccc1C(=O)NC(=O)Nc1ccc(-n2nc(C(F)(F)F)cc2C(F)(F)F)cc1	1.2%
CN(C)CCNc1cc(N2CCN(C)CC2)ncn1	-5.2%
O=C(Nc1ccc(F)c(F)c1)c1cc(S(=O)(=O)NC2CCCC2)ccc1F	?
Cc1ccccc1CNC(=O)c1oc2c(c1C)-c1[nH]ncc1CC2	?
COC(=O)c1ccccc1NC(=O)c1cc(C)nc2c1c(C)nn2-c1ccc(C)cc1	-5.0%
CN1CCN(C(c2cccc(Br)c2)c2sc3nc(-c4ccco4)nn3c2O)CC1 (centres undefined)	-1.7%
COc1ccc(CC(=O)N2CCc3cc(OC)c(OC)cc3C2COc2ccc(OC)cc2)cc1 (centres undefined)	-1.0%

Next section
SMILES	ClpP mod
COc1ccc(N2C(=O)C(CC(=O)Nc3ccc(Cl)cc3)N(Cc3ccc4c(c3)OCO4)C2=O)cc1 (centres undefined)	-1.5%
COc1ccc(N(C(=O)COc2ccc(Br)cc2)S(=O)(=O)c2ccc(C)cc2)cc1	0.7%
CCOC(=O)[C@]12CCCC=C1N(Cc1cccc3ccccc13)C(=O)[C@H](CC(=O)NCc1cccc3ccccc13)C2	-16%
COc1ccc(CNC(=O)c2c(Nc3ccccc3C)sc(C(=O)c3ccccc3)c2N)cc1	-3.9%
O=C(NCCc1ccc(Cl)cc1)C(=O)NCC(c1cccs1)S(=O)(=O)c1ccccc1 (centres undefined)	-0.5%
O=c1oc2ccc(F)cc2cc1-c1nc(-c2cccs2)no1	-6.2%
Cc1cc(NC(=O)c2cc(-c3ccc(F)cc3)on2)nn1Cc1ccc(Cl)cc1	4.1%
CC(C)C[C@H]1CN(CCCC[C@H]2CNC(=O)C(=O)N2CCc2ccc(O)cc2)C(=O)C(=O)N1CCC1CCCCC1	1.0%
CCc1cccc(NC(=O)CSc2ncc3c(n2)-c2ccc(Cl)cc2N(Cc2ccccc2)S3(=O)=O)c1	?
COC(=O)c1ccccc1NC(=O)COc1ccccc1C(=O)Nc1ccccc1	-16%
CCCCCOc1c(Cl)cc(C(=O)N(Cc2ccc(C)o2)C2CCS(=O)(=O)C2)cc1Cl (centres undefined)	0.2%
CCOC(=O)N1CCc2c(sc3c2c(=O)n(CCc2ccccc2)c(=O)n3Cc2ccc(F)cc2)C1	-2.2%
CCCCCCC[n+]1ccc(/C=C/c2c(C)[nH]c3ccccc23)c2ccccc21	-2.2%
CCOC(=O)N1CCN(C(=O)C[C@@H]2C[C@@]3(C(=O)OC)CCCCC=C3N(Cc3ccc(Cl)cc3Cl)C2=O)CC1	0.9%
CCOC(=O)c1c(NC(=O)c2cc(-c3ccc(OC)c(OC)c3)on2)sc2c1CCCC2	-5.3%
Cc1ccc(C(=O)N(c2ccc(C)cc2)S(=O)(=O)c2ccc(Cl)cc2)cc1	-0.4%
COc1ccc(C)cc1NC(=O)COc1cc(=O)n(C)c2ccccc12	-0.8%
Cc1ccccc1C(=O)Nc1nnc(S(=O)(=O)N(C)c2ccc(Cl)cc2)s1	-12%
CCOc1ccc(/C=C/c2ccnc3ccccc23)cc1OCC	-10%
Cc1cccc(-n2c(SCC(N)=O)nc3c(oc4ccccc43)c2=O)c1	-0.4%

15 of these compounds, set out differently:
SMILES,ClpP mod
COc1ccc(N(C(=O)COc2ccc(Br)cc2)S(=O)(=O)c2ccc(C)cc2)cc1,0.7%
CCOC(=O)[C@]12CCCC=C1N(Cc1cccc3ccccc13)C(=O)[C@H](CC(=O)NCc1cccc3ccccc13)C2,-16%
COc1ccc(CNC(=O)c2c(Nc3ccccc3C)sc(C(=O)c3ccccc3)c2N)cc1,-3.9%
O=C(NCCc1ccc(Cl)cc1)C(=O)NCC(c1cccs1)S(=O)(=O)c1ccccc1 (centres undefined),-0.5%
O=c1oc2ccc(F)cc2cc1-c1nc(-c2cccs2)no1,-6.2%
Cc1cc(NC(=O)c2cc(-c3ccc(F)cc3)on2)nn1Cc1ccc(Cl)cc1,4.1%
CC(C)C[C@H]1CN(CCCC[C@H]2CNC(=O)C(=O)N2CCc2ccc(O)cc2)C(=O)C(=O)N1CCC1CCCCC1,1.0%
CCc1cccc(NC(=O)CSc2ncc3c(n2)-c2ccc(Cl)cc2N(Cc2ccccc2)S3(=O)=O)c1,?
COC(=O)c1ccccc1NC(=O)COc1ccccc1C(=O)Nc1ccccc1,-16%
CCCCCOc1c(Cl)cc(C(=O)N(Cc2ccc(C)o2)C2CCS(=O)(=O)C2)cc1Cl (centres undefined),0.2%
CCOC(=O)N1CCc2c(sc3c2c(=O)n(CCc2ccccc2)c(=O)n3Cc2ccc(F)cc2)C1,-2.2%
CCCCCCC[n+]1ccc(/C=C/c2c(C)[nH]c3ccccc23)c2ccccc21,-2.2%
CCOC(=O)N1CCN(C(=O)C[C@@H]2C[C@@]3(C(=O)OC)CCCCC=C3N(Cc3ccc(Cl)cc3Cl)C2=O)CC1,0.9%
CCOC(=O)c1c(NC(=O)c2cc(-c3ccc(OC)c(OC)c3)on2)sc2c1CCCC2,-5.3%
Cc1ccc(C(=O)N(c2ccc(C)cc2)S(=O)(=O)c2ccc(Cl)cc2)cc1,-0.4%

The results go on:
SMILES	ClpP mod
O=S(=O)(c1ccc(OC(F)(F)F)cc1)N1CCN(c2nc(-c3cccs3)nc3ccccc23)CC1	4.3%
COCCNC(=O)c1nn(-c2ccc(C)cc2)c(=O)n(C)c1=O	-2.4%
COc1ccc(CNS(=O)(=O)c2ccc(N3CCCCS3(=O)=O)cc2)cc1	-1.0%
CC(=O)N1CCOc2cc(S(=O)(=O)NCc3ccccc3Cl)c(C)cc21	-8.1%
O=C(CN1c2ccccc2S(=O)(=O)c2ccccc21)Nc1cccc(C(F)(F)F)c1	-21%
Cc1ccc(N2CCN(C(=O)C(=O)c3cccc([N+](=O)[O-])c3)CC2)cc1	-1.6%
Clc1cccc(CNCCCSc2nnnn2-c2ccccc2)c1	1.3%
COc1cc(Cl)c(C)cc1NC(=O)c1cc(S(=O)(=O)N2CCCC2)ccc1F	?
COc1ccc(C2C=C(c3ccccc3)Nc3nc(NC(=O)/C=C/c4ccccc4Cl)nn32)cc1 (centres undefined)	2.5%
COc1ccc(CCn2c(=O)c3cccnc3n(CC(=O)Nc3cccc(C)c3)c2=O)cc1OC	81%
O=C(NCCc1ccccc1)c1cnc2sc(N3CCCC3)nn2c1=O	24%
CCn1c(=O)c2sccc2n2c(CCCC(=O)Nc3ccc(Oc4ccccc4)cc3)nnc12	-1.0%
COc1ccc(S(=O)(=O)c2c(SC)nn(CC(=O)Nc3cccc(C)c3C)c2N)cc1	1.4%
Nc1cccc(S(=O)(=O)N2CCOCC2)c1	-0.3%
Cc1ccccc1Cn1c2ccccc2c2cnn(CC(=O)NC(C)CCc3ccccc3)c(=O)c21 (centres undefined)	-26%
COC(=O)c1ccccc1NC(=O)CSc1nnc2cc(C)c3cc(C)cc(C)c3n12	-7.2%
COc1ccc(-c2cc(C(=O)OC(C)C(=O)c3ccccc3)c3cccc(Cl)c3n2)cc1 (centres undefined)	-2.9%
COc1ccc(CCNC(=O)CCCCn2c(=O)c3ccccc3n(CC(=O)Nc3ccc(C)cc3C)c2=O)cc1OC	-5.6%
CCOc1cc(OCC)cc(C(=O)N2CCC[C@H]2C(=O)N2CCC[C@H]2C(=O)N[C@@H](C)c2ccccc2)c1	-1.2%
Clc1ccc(Nc2nc(-c3ccccc3)c3cc(Cl)ccc3n2)cc1	-3.5%
COC(=O)[C@@]12C[C@@H](CC(=O)NCc3cccc4ccccc34)C(=O)N(Cc3ccc4c(c3)OCO4)C1=CCC(C)(C)C2	-9.8%
Cc1nnc(NC(=O)CSc2nc3c([nH]c4ccccc43)c(=O)n2-c2cccc(Cl)c2)s1	-16%
CCOC(=O)c1c(C)oc2ncnc(Nc3cc(Cl)ccc3OC)c12	-0.3%
CCN(CCCNC(=O)c1cc(Nc2ccc(OC)cc2OC)nc2ccccc12)c1cccc(C)c1	-6.8%
Cc1ccccc1-c1nc(CS(=O)(=O)CC(=O)Nc2cc(Cl)cc(Cl)c2)c(C)o1	-20%
Cc1c(C(=O)NCCc2ccc(Cl)cc2)cccc1-n1cnc2cccnc21	1.0%
CCN(CC)S(=O)(=O)c1ccc2c(c1)N(CC(=O)NCc1ccccc1)C(=O)CS2	-0.8%
O=C(NC1CCCCC1)C(c1ccnc2ccccc12)n1c(=O)c(-c2ccco2)nc2ccccc21 (centres undefined)	4.0%
